# Screening results deposited in PubChem by Broad Institute.
# MLL AF4-AF9 inh – MLL-AF4/AF9 protein interaction inhibition; hit rate 0.47% among 350,000; inhibition, % at 10 µM; AlphaScreen, biotin-AF4 peptide binding to FLAG-AF9; P42568;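 active = every replicate reaching a set inhibition limit, whatever the replicate mean, cut at about 25% in these data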;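 also: 0% = plate neutral control median and 100% = total signal loss; the record names both 10 and 1 µM as test concentration; the first replicate is given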
# Target sequence (P42568 whole entry, looked up): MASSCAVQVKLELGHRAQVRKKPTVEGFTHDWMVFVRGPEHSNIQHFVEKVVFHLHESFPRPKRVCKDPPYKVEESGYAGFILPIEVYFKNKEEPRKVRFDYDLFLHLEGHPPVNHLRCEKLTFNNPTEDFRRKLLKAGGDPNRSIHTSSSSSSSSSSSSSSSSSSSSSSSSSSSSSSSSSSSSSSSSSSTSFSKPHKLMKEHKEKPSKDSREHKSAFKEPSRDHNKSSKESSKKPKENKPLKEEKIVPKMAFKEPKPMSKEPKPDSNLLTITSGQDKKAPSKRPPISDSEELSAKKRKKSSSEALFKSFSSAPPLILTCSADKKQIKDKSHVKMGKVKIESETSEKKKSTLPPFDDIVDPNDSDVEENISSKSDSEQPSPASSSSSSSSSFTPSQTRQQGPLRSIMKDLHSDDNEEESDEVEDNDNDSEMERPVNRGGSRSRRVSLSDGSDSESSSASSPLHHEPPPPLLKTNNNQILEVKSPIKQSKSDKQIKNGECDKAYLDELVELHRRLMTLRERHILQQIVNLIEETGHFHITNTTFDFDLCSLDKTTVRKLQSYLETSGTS
# Starred values were filed as active, the others as inactive; & = joins results of further samples.
SMILES,MLL AF4-AF9 inh
COc1ccc2c3c([nH]c2c1)[C@H](CO)N(C(=O)C1CCC1)CC31CCN(C(=O)NC(C)C)CC1,4.0
COc1ccc(-c2ccc([C@H]3[C@H](CO)N4C(=O)CN(C(=O)NC(C)C)C[C@@H]34)cc2)cc1,-11
C[C@@H]1CN([C@H](C)CO)C(=O)c2cc(NC(=O)Nc3cccc4ccccc34)ccc2O[C@@H]1CN(C)C(=O)Nc1ccc(C(F)(F)F)cc1,0.9
O=C(Nc1cc(F)ccc1F)N[C@H]1CC[C@@H](CCn2cc(C3CC3)nn2)O[C@H]1CO,-0.8
N#C[C@H]1[C@@H](c2ccccc2-c2ccc(F)cc2)[C@H](CO)N1C(=O)Cc1ccccc1,-2.6
N#C[C@H]1[C@@H](c2ccc(C#Cc3cccc(F)c3)cc2)[C@H](CO)N1C(=O)C1CC1,-3.6
O=C(NCC(c1cccs1)N1CCOCC1)c1cc(S(=O)(=O)N2CCOCC2)ccc1Cl (centres undefined),-2.4
CN(C)CCN(C)C1CN(CCc2ccccc2)S(=O)(=O)C1 (centres undefined),-4.9
COc1ccc(-c2ccc3c(c2)O[C@@H](CN(C)Cc2cccnc2)[C@H](C)CN([C@@H](C)CO)S3(=O)=O)cc1,-1.4
CO[C@H]1CN(C)C(=O)c2cc(NC(=O)NC(C)C)ccc2OC[C@@H](C)N(C(=O)C2CCC2)C[C@@H]1C,-2.5
CO[C@@H]1CN(C)C(=O)c2cc(NC(=O)c3cnccn3)ccc2OC[C@H](C)N(CC2CC2)C[C@H]1C,-12
CCCNC(=O)N1CC2(CN(S(=O)(=O)c3ccc(OC)cc3)C2)c2c(n(C)c3cc(OC)ccc23)[C@H]1CO,-0.5
CC(=O)N[C@@H]1C=C[C@H](CC(=O)NCC2CCCCC2)O[C@@H]1CO,-2.0
Cc1ccc(S(=O)(=O)NC(=O)C2(C)CCN2C(=O)C2CCCCC2)cc1 (centres undefined),-1.9
O=C(C[C@@H]1CC[C@@H]2[C@H](COC[C@H](O)CN2C(=O)c2ccc(F)cc2)O1)NCc1cccc(F)c1,-1.7
FC(F)(F)c1ccccc1Cc1c(C2CCCCC2)nc2ccc(Br)cn12,-3.0
Cc1ccc(Cn2c(C)c(C(=O)NCc3ccccc3C(F)(F)F)sc2=O)cc1,10
Cc1noc(C)c1S(=O)(=O)N(C)C[C@@H]1Oc2ccc(NS(=O)(=O)c3cn(C)cn3)cc2CC(=O)N([C@@H](C)CO)C[C@@H]1C,0.0
C[C@H]1CCCCO[C@H](CN(C)C(=O)Nc2cccc3ccccc23)[C@@H](C)CN([C@@H](C)CO)C(=O)c2cc(NC(=O)Cc3ccccc3)ccc2O1,1.9
C[C@H]1CN([C@@H](C)CO)C(=O)c2cccc(NC(=O)Nc3ccc(F)cc3)c2O[C@H]1CN(C)Cc1ccc(Oc2ccccc2)cc1,1.8
O=C(C[C@H]1C[C@H]2c3cc(NC(=O)c4ccc5c(c4)OCO5)ccc3O[C@H]2[C@@H](CO)O1)NCc1cc(F)ccc1F,-1.9
CC(C)(C)OC(=O)N(Cc1ccccc1)Cc1ccccc1OCc1cccc(NC(=O)C2CC2)c1,-0.8
CC(=O)NC[C@@H]1[C@H](c2ccccc2)[C@H](CO)N1C(=O)Cc1cccnc1,0.3
CCC(=O)NC[C@@H]1[C@@H](c2ccc(C3=CCCCC3)cc2)[C@@H](CO)N1CC1CC1,1.1
C[C@@H]1CCCCO[C@H](CN(C)Cc2ccccc2)[C@H](C)CN([C@H](C)CO)C(=O)c2cc(NC(=O)c3ccncc3)ccc2O1,-1.3
# New compounds follow
SMILES,MLL AF4-AF9 inh
O=C(C[C@@H]1CC[C@H](NC(=O)CC2CC2)[C@H](CO)O1)NCC(F)(F)F,2.3
COc1ccc2c3c(n(C)c2c1)[C@H](CO)N(C(=O)c1ccccc1)CC31CN(CC2CC2)C1,7.2
C[C@H](CO)N1C[C@H](C)[C@@H](CN(C)S(=O)(=O)c2ccccc2)OCCCC[C@H](C)Oc2ccc(NC(=O)Nc3ccc(F)cc3)cc2C1=O,2.8
CO[C@@H]1CN(C)C(=O)c2cc(NS(=O)(=O)c3ccccc3F)ccc2OC[C@H](C)NC[C@@H]1C,-2.7
O=C(OCc1ccccc1)N1CCC2CC1c1cc(Cl)ccc12 (centres undefined),-0.8
CC(O)(c1ccc(F)c(F)c1)c1nc(-c2cccc3cccnc23)cs1 (centres undefined),1.5
CN(C)CCCNC(=O)C[C@H]1CC[C@H]2[C@@H](COc3ccc(NC(=O)c4ccccc4F)cc3C(=O)N2C)O1,-2.6
C[C@H]1CCCCO[C@H](CN(C)C(=O)Cc2ccccc2)[C@@H](C)CN([C@@H](C)CO)C(=O)c2cc(NC(=O)CCCN(C)C)ccc2O1,1.2
COc1cccc(-c2cnc3c(c2)C(=O)N([C@@H](C)CO)C[C@H](C)[C@H](CN(C)Cc2ccc(F)cc2)O3)c1,-0.1
COc1ccc2sc(-c3ccccc3OC)c(-c3ccc(SC)cc3)c2c1,-1.7
CN(C)CC#Cc1ccc([C@H]2[C@@H](CO)N(C(=O)C3CCCC3)[C@H]2C#N)cc1,-3.6
COc1ccc(-c2ccc([C@H]3[C@@H](C#N)N(C(=O)C4CCC4)[C@H]3CO)cc2)cc1,-2.5
C[C@H]1CN([C@@H](C)CO)C(=O)c2cc(NC(=O)CCN3CCOCC3)ccc2O[C@@H]1CN(C)C(=O)Nc1ccc(C(F)(F)F)cc1,-3.9
O=C(NC1CCC1)[C@H]1[C@H](CO)[C@H]2Cn3c(ccc(/C=C/c4ccccc4)c3=O)[C@H]2N1Cc1ccncc1,-7.2
CN(C)c1ccc(NC(=O)Nc2ccc3c(c2)c(=O)n(C)n3Cc2ccccc2)cc1,11
O=C(c1ccc(F)cc1)N1CCCCN2[C@H](CO)[C@H](c3ccc(-c4ccccc4)cc3)[C@H]2C1,4.4
O=C(c1cccc(F)c1)N1CCCCN2[C@H](CO)[C@@H](c3ccc(-c4cccnc4)cc3)[C@@H]2C1,-6.4
C[C@@H]1CN([C@@H](C)CO)C(=O)c2cc(NC(=O)Nc3cccc4ccccc34)ccc2O[C@@H](C)CCCCO[C@H]1CN(C)C,4.4
O=S(=O)(c1ccccc1)N1CC2(C1)[C@H](c1ccccc1)[C@H](CO)N2CC1CC1,-21
CCC(=O)N1CC[C@@H]2[C@H]1c1cc(C#Cc3ccc(OC)cc3)ccc1N[C@@H]2CO,-3.7
CCC(=O)N[C@H]1CC[C@@H](CC(=O)OC)O[C@H]1CO,-0.3
O=C1c2ccccc2C(c2nc3ccccc3[nH]2)N1c1ccccn1 (centres undefined),-1.1
O=C(Nc1cccc(F)c1)N1CCCCN2[C@H](CO)[C@H](c3ccc(C#CC4CC4)cc3)[C@@H]2C1,4.4
Cc1ccc(S(=O)(=O)N(C)C[C@@H]2Oc3ccc(NC(=O)C4CCCCC4)cc3CC(=O)N([C@@H](C)CO)C[C@@H]2C)cc1,-1.0
O=C(NC1CCCC1)N1CC(=O)N2[C@H](CO)[C@H](c3ccc(C4=CCCCC4)cc3)[C@@H]2C1,-1.6

# Retrieved by structure from the entries so far (7):
SMILES,MLL AF4-AF9 inh
COc1cccc(-c2cnc3c(c2)C(=O)N([C@@H](C)CO)C[C@H](C)[C@H](CN(C)Cc2ccc(F)cc2)O3)c1,-0.1
C[C@H](CO)N1C[C@H](C)[C@@H](CN(C)S(=O)(=O)c2ccccc2)OCCCC[C@H](C)Oc2ccc(NC(=O)Nc3ccc(F)cc3)cc2C1=O,2.8
O=S(=O)(c1ccccc1)N1CC2(C1)[C@H](c1ccccc1)[C@H](CO)N2CC1CC1,-21
O=C(NC1CCCC1)N1CC(=O)N2[C@H](CO)[C@H](c3ccc(C4=CCCCC4)cc3)[C@@H]2C1,-1.6
COc1ccc2sc(-c3ccccc3OC)c(-c3ccc(SC)cc3)c2c1,-1.7
CCC(=O)N[C@H]1CC[C@@H](CC(=O)OC)O[C@H]1CO,-0.3
O=C1c2ccccc2C(c2nc3ccccc3[nH]2)N1c1ccccn1 (centres undefined),-1.1

# Returning to the listing with the two entries that preceded the break.
SMILES,MLL AF4-AF9 inh
Cc1ccc(S(=O)(=O)N(C)C[C@@H]2Oc3ccc(NC(=O)C4CCCCC4)cc3CC(=O)N([C@@H](C)CO)C[C@@H]2C)cc1,-1.0
O=C(NC1CCCC1)N1CC(=O)N2[C@H](CO)[C@H](c3ccc(C4=CCCCC4)cc3)[C@@H]2C1,-1.6
CN(C)CC(=O)N[C@@H]1C=C[C@H](CC(=O)NCCN2CCCCC2)O[C@H]1CO,-0.1
COc1cccc(S(=O)(=O)N(C)C[C@@H]2Oc3ncc(C#CC(C)(C)O)cc3C(=O)N([C@H](C)CO)C[C@@H]2C)c1,-2.6
C[C@H]1CN([C@@H](C)CO)C(=O)c2cc(NC(=O)Cc3cn(C)c4ccccc34)ccc2O[C@H]1CN(C)S(=O)(=O)c1ccc(F)cc1,-1.8
COCC#Cc1ccc2c(c1)O[C@@H](CN(C)Cc1ccncc1)[C@@H](C)CN([C@H](C)CO)S2(=O)=O,-1.3
CCCN1CCC(C)(C(=O)Nc2ccccc2Oc2ccccc2)C1 (centres undefined),-5.7
C[C@H](CO)N1C[C@H](C)[C@H](CN(C)Cc2ccc(Cl)c(Cl)c2)Oc2c(NC(=O)C3CC3)cccc2C1=O,1.7
O=C(C[C@@H]1C=C[C@H](NC(=O)NC2CCCC2)[C@H](CO)O1)NCc1ccc(F)cc1,-3.0
Cc1cccc(S(=O)(=O)N2CC[C@@H]3[C@@H](CO)Nc4ccc(C#Cc5ccccc5F)cc4[C@@H]32)c1,0.4
Cc1noc(C)c1S(=O)(=O)N(C)C[C@H]1OCCCC[C@@H](C)Oc2ccc(NC(=O)Nc3cccc4ccccc34)cc2C(=O)N([C@H](C)CO)C[C@@H]1C,0.8
COCc1[nH]nc2c1C(c1ccccc1)NC2=O (centres undefined),-3.6
COc1ccccc1-c1ccc2n(c1=O)C[C@H]1[C@H](CO)[C@@H](C(=O)N(C)C)[C@@H]2N1C(=O)c1cccnc1,2.3
CO[C@@H]1CN(C)C(=O)c2ccc(NC(=O)c3ccccc3F)cc2OC[C@@H](C)N(CC2CC2)C[C@H]1C,0.9
C[C@H](CO)N1C[C@H](C)[C@H](CN(C)C(=O)Nc2cccc(F)c2)OCc2cnnn2CCCC1=O,-1.5&0.6
COCC#Cc1ccc([C@H]2[C@@H](CO)N3CCCCN(S(=O)(=O)c4cccc(OC)c4)C[C@@H]23)cc1,-5.7
CN(CC(=O)Nc1ccccc1Br)C(=O)c1ccccc1OCc1ccc(Cl)cc1,2.9
COCC(=O)N(C)C[C@H]1Oc2cc(C#Cc3ccccc3)ccc2S(=O)(=O)N([C@H](C)CO)C[C@@H]1C,1.7
C[C@@H](NC(=O)[C@H]1N[C@H]2c3ccc(-c4ccncc4)c(=O)n3C[C@H]2[C@@H]1CO)c1ccccc1,0.8
COCC(=O)Nc1ccc2c(c1)C(=O)N(C)C[C@H](OC)[C@H](C)CN(C(=O)COC)[C@@H](C)CO2,2.1
COc1ccc(NC(=O)Nc2ccc3c(c2)C(=O)N([C@@H](C)CO)C[C@@H](C)[C@H](CN(C)C(=O)Nc2ccc(C(F)(F)F)cc2)OCCCC[C@H](C)O3)cc1,-11
C[C@H]1CN([C@@H](C)CO)S(=O)(=O)c2ccc(C#CC3CC3)cc2O[C@H]1CN(C)C(=O)c1cccnc1,-1.4&-1.7&-1.5
COCCNC(=O)C[C@@H]1CC[C@H](NC(=O)NC2CCCC2)[C@H](CO)O1,-0.8
CCCNC(=O)N[C@@H]1CC[C@H](CC(=O)NC2CCC2)O[C@H]1CO,0.0
CCCC(=O)N1CC2(CCN(C(=O)CC3CC3)CC2)c2c(n(C)c3cc(OC)ccc23)[C@@H]1CO,-1.3
O=C(Nc1cccc(F)c1)N1CC(=O)N2[C@H](CO)[C@H](c3ccc(-c4ccccc4)cc3)[C@H]2C1,0.5
Cc1cccc(C)c1NC(=O)C1(C)CCC(=O)N1CCCn1ccnc1 (centres undefined),-0.7
# Next part.
SMILES,MLL AF4-AF9 inh
O=C(C1CCCCC1)N1CC(=O)N2[C@H](CO)[C@H](c3ccc(Br)cc3)[C@H]2C1,-2.5
C[C@H]1CN([C@@H](C)CO)C(=O)c2cc(-c3ccc(C(=O)N(C)C)cc3)cnc2O[C@@H]1CN(C)C,-2.7
O=C(C[C@@H]1CC[C@H]2[C@@H](COC[C@H](O)CN2S(=O)(=O)c2ccc(F)cc2)O1)N[C@@H]1CCN(Cc2ccccc2)C1,2.7
CCNC(=O)[C@H]1[C@H](CO)[C@H]2Cn3c(ccc(-c4ccc(F)cc4)c3=O)[C@@H]1N2Cc1ccccc1F,1.6
O=C(NC1Cc2ccccc2C1)[C@@H]1[C@@H](CO)[C@@H]2Cn3c(ccc(C4=CCCC4)c3=O)[C@H]1N2,1.0
CN(C)CCCNC(=O)C[C@H]1CC[C@H]2[C@@H](COc3ccc(NC(=O)C4CCC4)cc3C(=O)N2C)O1,-0.1
C[C@@H]1CN([C@H](C)CO)C(=O)CCCn2cc(nn2)CO[C@@H]1CN(C)C(=O)CCCN(C)C,-4.8
C[C@@H]1CCCCO[C@H](CN(C)C(=O)Nc2ccc3c(c2)OCO3)[C@H](C)CN([C@H](C)CO)C(=O)c2cc(NS(=O)(=O)c3cccs3)ccc2O1,1.0
C[C@H]1CN([C@@H](C)CO)C(=O)Cc2cc(NS(C)(=O)=O)ccc2O[C@@H]1CN(C)S(=O)(=O)c1ccccc1,-1.0
N#C[C@@H]1[C@@H](c2ccc(C3=CCCCC3)cc2)[C@H](CO)N1C(=O)Cc1ccncc1,0.8
C[C@@H]1CCCCO[C@H](CN(C)C(=O)Nc2ccc(F)cc2)[C@H](C)CN([C@@H](C)CO)C(=O)c2cc(NS(C)(=O)=O)ccc2O1,-0.1
COc1ccc(COCC23N=C4SCc5ccccc5CN4[C@H](c4ccccc4O2)[C@H]3CO)cc1,1.9
COc1ccc2c3c([nH]c2c1)[C@H](CO)N(C(C)=O)CC31CN(C(=O)Nc2ccccc2F)C1,0.5

# Some of the compounds tested, so the mix of outcomes need not match the whole.
